AID504770: E. coli YBA685 growth inhibition, screen for V. cholerae RctB inhibitors. 130,000 tested, 0.27% active. E. coli YBA685 rctB-dependent plasmid, OD600 growth, 3 h; active compounds read low. z-score (no concentration beside the values);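 active = z-score under -2 on both plates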;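 also: wells of about 30 µL received 100 nL stock; score is relative to mean and SD of the test wells; the first replicate is given; strong numbers were not always called active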
Ba CapD inh: inhibitors of Bacillus anthracis CapD enzyme. purified CapD enzyme, fluorescence intensity read-out; active compounds read low; some hits fall short of the stated cut. z-score (concentration not given with the values). 140,000 tested, 0.23% active. AID 492967;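 active = z-score under -4 in either of two replicates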;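 also: stock transfer was 100 nL into about 40 µL; score is relative to mean and spread of the plate; one replicate is shown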
* hit, by the source's call; · = not tested or not shown.

Every second line gives: AID504770, Ba CapD inh
CN(C)c1nc(OCCOC(=O)c2ccccc2)nc(N(C)C)n1
  ·, -0.18
O=C1Nc2ccccc2/C1=C/c1ccc(N2CCOCC2)cc1
  -0.8, -2.6
CCC(C)(C)n1nnnc1CN(Cc1ccc(Cl)cc1)CC1CCCO1 (stereo unspecified)
  0.05, ·
Clc1ccc(CNc2nc3ccccc3[nH]2)cc1Cl
  -2.8*, -0.24
Cc1cc(C)nc(/N=C2\NC(=O)CC(C(=O)O)N2c2cccc(Cl)c2)n1 (stereo unspecified)
  0.1, 0.43
CCC(C)(C)c1cc2cc(NS(=O)(=O)c3ccc(C)cc3)ccc2[nH]1
  ·, -0.55
Cc1cc(C)c(NC(=O)C(C)OC(=O)C2CCCCC2)c(C)c1 (stereo unspecified)
  -0.05, ·
O=C(CSC1=NS(=O)(=O)c2ccccc21)Nc1ccccc1
  -1.1, -1.1
CC1CN(C(=O)CSc2nnc(-c3cccs3)n2N)CC(C)O1 (stereo unspecified)
  -0.95, ·
CC(=O)Nc1nc2ccc(NC(=O)c3c([N+](=O)[O-])cnn3C)cc2s1
  ·, 1.8
CCNc1nc(NCC)nc(OCC#N)n1
  -1.1, 0.21
Cc1cccn2c(=O)c(/C=C3\SC(=S)N(Cc4ccccc4)C3=O)c(N3CCN(C)CC3)nc12
  ·, -0.32
Cc1ccc(Nc2cc(C(=O)NCCC(C)C)c3ccccc3n2)cc1C
  1.6, 0.88
CCOC(=O)C1=C(N)N(c2cccc([N+](=O)[O-])c2)C2=C(C(=O)CC(C)(C)C2)C1c1cc(Br)cs1 (stereo unspecified)
  ·, -0.35
CCOc1ccccc1NC(=O)CC1SC(N)=NC1=O (stereo unspecified)
  1.2, -0.39
N#CCC(=O)NCc1ccccc1
  0.05, 0.44
COc1ccc(Nc2nc3ccccc3c(=O)s2)cc1
  -0.75, -0.73
CNC(=S)N/N=C1\CCOc2ccc3ccccc3c21
  1.8, -1.1
CCCN(CCC)S(=O)(=O)c1ccc(C(=O)Nc2cccc3c2C(=O)c2ccccc2C3=O)cc1
  ·, 0.14
CCCn1c(/N=C/c2c[nH]c3ccccc23)nc2ccccc21
  -1.6, -4.1*
COc1ccc(-c2nc(-c3ccc(NC(=O)c4ccco4)cc3)no2)cc1OC
  ·, 1
COC(=O)CSc1nnc(CNC(=O)Cc2ccccc2)n1-c1ccc(OC)cc1
  1.7, 0.035
O=C(CCN1CCOCC1)Nc1cc(C(=O)Nc2ccc(Cl)cc2)ccc1N1CC2CC(C1)c1cccc(=O)n1C2 (stereo unspecified)
  ·, 1.7
COC(=O)c1ccc(COC(=O)c2cccc(S(=O)(=O)NCc3ccccc3)c2)o1
  -0.4, ·
COc1ccccc1NC(=O)Cc1noc(CSc2nc3sc(C)c(C)c3c(=O)n2C(C)C)n1
  0.55, ·
CCCCn1c(N)c(N(Cc2ccco2)C(=O)Cc2coc3cc(OC)ccc23)c(=O)[nH]c1=O
  -0.15, ·
CCCc1cc(=O)n(CC(=O)Nc2ccccc2)c(-n2nc(C)cc2C)n1
  2.5, ·
CN1CCN(S(=O)(=O)c2ccc(SCC(=O)NC3C4CC5CC(C4)CC3C5)nc2)CC1 (stereo unspecified)
  -0.8, ·
CCC(Oc1ccc2c(c1)oc(=O)c1ccccc12)C(=O)OC (stereo unspecified)
  -0.75, 30
CCN(C(=O)c1cc2ccccc2o1)c1nc2c(C)cccc2s1
  0.85, ·

Single records, as listed above:
CCC(Oc1ccc2c(c1)oc(=O)c1ccccc12)C(=O)OC (stereo unspecified) is listed with AID504770 = -0.75; Ba CapD inh = 30
COc1ccc(-c2nc(-c3ccc(NC(=O)c4ccco4)cc3)no2)cc1OC is listed with AID504770 = ·; Ba CapD inh = 1
Clc1ccc(CNc2nc3ccccc3[nH]2)cc1Cl is listed with AID504770 = -2.8*; Ba CapD inh = -0.24

(continued)
Every second line gives: AID504770, Ba CapD inh
c1csc(CN2CCCCCC2)c1
  -0.75, 0.21
C1CN=C(NCC2CCCO2)C1 (stereo unspecified)
  0.1, ·
CN(C)c1ccc(C2CC(c3ccccc3)=NN2C(=O)c2ccc(F)cc2)cc1[N+](=O)[O-] (stereo unspecified)
  ·, -0.57
COc1cccc(NC(=O)c2ccc(COc3ccc(Cl)cc3)o2)c1
  1.4, ·
COc1ccc2cc3cc(C(=O)N(C)c4cc(C)ccc4C)oc3nc2c1
  -0.65, 2.1
Oc1ccc(C2N(c3ccccc3)CCN2c2ccccc2)cc1Br
  ·, -0.3
CCCCNC(=O)CC1Sc2ccccc2NC1=O (stereo unspecified)
  0.25, -1
O=C(CN1C(=O)COc2ccccc21)N(CC1CCCO1)c1nc2ccccc2s1 (stereo unspecified)
  -0.1, ·
CN1CCN(c2nc(Cc3ccccc3)nc3sc4c(c23)CCCC4)CC1
  ·, -0.24
CC(C)(C)Oc1ccc(C(=O)N(Cc2ccc(F)cc2)C2CCOC(C)(C)C2)cc1 (stereo unspecified)
  1.4, 0.41
O=C(CSc1nnc(CCCN2C(=O)c3cccc4cccc(c34)C2=O)n1-c1ccccc1)NCCCN1CCOCC1
  ·, 40
COc1ccc(OC)c(C2SCCN2C(=O)c2cc3ccccc3oc2=O)c1 (stereo unspecified)
  0.05, -0.45
Cc1cc(C)c(C#N)c(SCC(=O)Nc2nsc(-c3ccc(Cl)cc3)n2)n1
  -0.3, -0.04
CCOC(=O)c1c(-c2ccccc2)c[nH]c1N
  0.1, -0.32
COc1ccc(S(=O)(=O)N2CCc3ccc(NS(=O)(=O)c4ccccc4)cc32)cc1
  ·, -0.41
Cc1cc(C(F)(F)F)nc2c(Cl)c(C3CC3)nn12
  -0.15, -0.36
C=CCNC(=S)N1CCc2cc(OC)c(OC)cc2C1
  -0.55, 0.38
Cc1cccc(C)c1N1CCN(Cc2ccc(Cl)nc2)CC1
  -0.75, -0.015
COc1ccc(Cl)cc1Nc1nnc(-c2cc3cc([N+](=O)[O-])ccc3oc2=O)s1
  ·, -0.21
CCN1CC2=C(OC(N)=C(C#N)C2c2ccc(OC)cc2)/C(=C\c2ccc(OC)cc2)C1 (stereo unspecified)
  1.9, ·
O=C(c1ccc(-c2ccccc2)cc1)c1cnc(Nc2ccccc2)s1
  ·, 0.43
CCCN1CCN(c2ncnc3sc(C(=O)N4CCCCCC4)c(C)c23)CC1
  ·, 0.52
CC(C)CCNC(=O)c1ccc2c(Cl)c3c(nc2c1)CCCC3
  1.9, 59
CC(C)C(C(=O)O)c1ccc(Cl)cc1 (stereo unspecified)
  -0.5, -0.05
COC(=O)c1ccc(C(=O)Nc2cccc3c(OC)cccc23)cc1
  -0.3, -0.11
COC(=O)c1ccccc1NC(=O)n1ncc2c(C)cccc21
  -0.25, 12
O=C(NCCCc1ccccc1)C1CCCN1c1nnc(N2CCCC2=O)s1 (stereo unspecified)
  0.05, -0.06
CCc1ccc(NC(=O)Cn2nc(CC)n3c(cc4sccc43)c2=O)cc1
  0.15, 0.025
CC1Cc2ccccc2N1C(=O)Cn1c(-c2cccnc2)ccc(C#N)c1=O (stereo unspecified)
  -0.65, ·
O=C(Nc1ccc(Cl)cc1)c1ccc2snnc2c1
  ·, -0.035

The closing 2 records of the section before come first, to join the parts:
Every second line gives: AID504770, Ba CapD inh
CC1Cc2ccccc2N1C(=O)Cn1c(-c2cccnc2)ccc(C#N)c1=O (stereo unspecified)
  -0.65, ·
O=C(Nc1ccc(Cl)cc1)c1ccc2snnc2c1
  ·, -0.035
O=C(Nc1ccc2nn(-c3ccccc3)nc2c1)C(c1ccccc1)c1ccccc1
  1.1, -0.33
CN(C)c1ccc(C2C(C#N)=C(N)OC3=C2C(=O)CC(c2ccccc2)C3)cc1 (stereo unspecified)
  ·, -0.18
O=C(OCCN1C(=O)c2cccc3c(N4CCCCC4)ccc(c23)C1=O)c1ccccc1[N+](=O)[O-]
  ·, 0.29
CCN(CC)C(=O)CSc1nnc(COc2ccc(C)cc2)n1N
  1.5, ·
COc1ccc(C(=O)Nn2c(SCC(=O)NCc3ccco3)nc3ccccc3c2=O)cc1
  ·, -1
CCN(CC)S(=O)(=O)c1ccc(C(=O)N2N=C3/C(=C/c4cccs4)CCCC3C2c2cccs2)cc1 (stereo unspecified)
  2.5, ·
CCc1ccc(NC(=O)C(C)Sc2ccc(S(=O)(=O)N3CCN(C)CC3)cn2)cc1 (stereo unspecified)
  -0.6, ·
CS(=O)(=O)N1CCC(c2nc3ccccc3[nH]2)CC1
  1.3, ·
Cc1ccc(NC(=O)CN(C)Cc2cc(=O)n3ccsc3n2)cc1
  -0.75, ·
COC(=O)c1sc(N)c(C(=O)OC)c1CSc1nnc(C(F)(F)F)n1C
  -0.45, ·
CCOC(=O)c1c(NC(=O)CSc2nnc(CNC(=O)c3ccco3)n2Cc2ccccc2)sc2c1CCCCC2
  ·, -0.38
CCCCS(=O)(=O)Nc1cccc(O)c1
  0.1, ·
Cc1cc(=O)n2[nH]cc(C#N)c2n1
  ·, 0.83
N#CCSc1nc(-c2ccccc2)cs1
  0.05, -0.1
CCOC(=O)C1=C(C)NC2=C(C(=O)C(C(=O)OCC)C(c3ccc(OC)cc3)C2)C1c1ccc(OC)c(OC)c1 (stereo unspecified)
  ·, 12
Cc1ccc(Nc2cc(NCc3ccccc3)c3noc4c3c2C(=O)c2ccccc2-4)cc1
  ·, 1.2
N#Cc1ccc(C2NC(=O)c3ccccc3N2)cc1 (stereo unspecified)
  -1.4, 6.5
O=S(=O)(c1ccc(-c2cn3cc(Cl)ccc3n2)cc1)N1CCOCC1
  ·, 0.39
COc1ccc(Br)cc1S(=O)(=O)n1ccnc1C(C)C
  -0.65, -0.24
CCn1c(NNS(=O)(=O)c2ccccc2F)nc2ccccc2c1=O
  -1.5, ·
O=C(NNC(=O)c1ccc(-c2ccccc2)cc1)OCCSc1ccc(C(F)(F)F)cn1
  ·, 14
Nc1n[nH]c2c1CSc1ccc(Cl)cc1-2
  -1.1, 0.02
OC1CCCCC1NCCNc1nccc(C(F)(F)F)n1 (stereo unspecified)
  ·, 0.28
Cc1cc(NC(=O)CSc2ncn[nH]2)no1
  ·, -0.3
CCc1ccc(N=C2N=C(N)c3ccccc32)cc1
  0.3, -0.74
COc1ccc2c(CSc3nnc(Nc4ccccc4OC)s3)cc(=O)oc2c1
  -0.65, ·
COc1ccc(OC)c(NC(=O)c2sc3nc(C)nc(N4CCCCC4C)c3c2C)c1 (stereo unspecified)
  ·, -1.4
COc1cccc(C(=O)N/N=C/c2cccc(Cl)c2Cl)c1
  ·, -0.53
NC(=O)c1cc(S(=O)(=O)N2CCCC2)ccc1OCc1ccc(F)cc1
  0.95, ·
O=c1[nH]cnc2c(-c3ccc(Cl)cc3)nsc12
  -0.5, 3.2

3 compounds already listed, arranged by SMILES length, largest number first.
Every second line gives: AID504770, Ba CapD inh
COc1ccc(C(=O)Nn2c(SCC(=O)NCc3ccco3)nc3ccccc3c2=O)cc1
  ·, -1
NC(=O)c1cc(S(=O)(=O)N2CCCC2)ccc1OCc1ccc(F)cc1
  0.95, ·
N#Cc1ccc(C2NC(=O)c3ccccc3N2)cc1 (stereo unspecified)
  -1.4, 6.5

The list goes on.
Every second line gives: AID504770, Ba CapD inh
COc1ccc(C2Nc3ccccc3-n3cccc32)cc1 (stereo unspecified)
  ·, 20
FC(F)(F)c1ccc(Cl)c(N=CNc2cc(C(F)(F)F)ccc2Cl)c1
  ·, 0.31
O=C(Nc1ccccc1F)c1sccc1Oc1ccc(F)cc1[N+](=O)[O-]
  ·, -0.33
CCOC(=O)c1cc(-c2ccccc2)n(CCC(=O)N(C)C2CCCCC2)c1C
  -0.45, 0.76
COc1ccc2c(c1)N(C)/C(=C1/SC(=O)N(c3ccccc3)C1=O)S2
  1.1, ·
Cc1ccc2nc(-c3ccc(N=Cc4ccc[nH]4)cc3)sc2c1
  -0.05, 38
CCOc1ccc(C2=NN3C(C2)c2cccc(OCC)c2OC3c2ccc(F)c(F)c2)cc1 (stereo unspecified)
  ·, -1.4
COC(=O)c1ccc(C(=O)OC)c(NC(=O)c2cc3cc(Cl)ccc3oc2=O)c1
  ·, 0.21
CC(Cc1ccc(Cl)cc1)NS(=O)(=O)c1cccc(Br)c1 (stereo unspecified)
  ·, -0.5
CC1Cc2cc(S(N)(=O)=O)ccc2N1Cc1cc2c(cc1Br)OCCO2 (stereo unspecified)
  -0.1, ·
O=C(Cc1ccccc1)Nc1nc2ccc(Cl)cc2s1
  -0.05, 0.2
OC(CNCC1CCCCC1)c1ccccc1 (stereo unspecified)
  0, ·
COc1cc(SC)ccc1C(=O)N(C)Cc1nc2ccccc2c(=O)[nH]1
  0.4, ·
CSc1ccc(C2C3=C(CCCC3=O)NC3=C2C(=O)CCC3)cc1
  -0.3, 66
Cc1ccc(S(=O)(=O)C2(C(=O)N3CCCC3)CC2)cc1
  -0.7, -0.03
O=C1CC2(CCCC2)C(=O)N1Cc1coc(-c2cccs2)n1
  2.3, ·
O=C1CCCC2=C1C(c1ccc(F)cc1)n1c(nc3ccccc31)N2 (stereo unspecified)
  -0.25, 0.015
Cc1csc2nc(CSc3ccccc3)cc(=O)n12
  -0.15, 1
CCN(CC)C(=O)CC#N
  0.05, ·
O=C(NCC1COc2ccccc2O1)c1ccc2c(=O)n3c(nc2c1)CCCCC3 (stereo unspecified)
  0, ·
c1ccc(-c2nnc(-c3ccccn3)c(-c3ccccn3)n2)nc1
  ·, 0.33
C=CCOC(=O)C1=C(C)OC(N)=C(C(=O)OCCOC)C12C(=O)Nc1ccccc12 (stereo unspecified)
  ·, -0.32
COc1cccc(C2C(N3C(=O)c4ccccc4C3=O)C(=O)N2c2ccc(Cl)cc2C)c1 (stereo unspecified)
  ·, -0.47
N#Cc1ccc(NS(=O)(=O)c2cc(Cl)sc2Cl)cc1
  1, 0.075
CNS(=O)(=O)c1ccc(F)c(C(=O)OCC(=O)c2c[nH]c3ccccc23)c1
  -0.45, ·
